Source: PubChem
TSHR agonist = activates the human thyroid stimulating hormone receptor. P16473. HEK293-CNG-TSHR cells (CNG channel as cAMP sensor), membrane potential dye, cAMP. Potency, µM (series often up to 57.1 µM), without a hit: at the highest dose activation, usual class: activators. 73,000 compounds, 0.48% hits. AID 926; active = well fitted activation curve of enough size with the parental cells flat; inconclusive = any curve in the parental cells; inactive = parental cells flat and receptor cells flat or falling; also: potency is read from the fitted curve at half-maximal effect; % of control where 0% means no effect; weak receptor curves with flat parental cells got no call and are not listed
Target sequence (P16473 whole entry, looked up): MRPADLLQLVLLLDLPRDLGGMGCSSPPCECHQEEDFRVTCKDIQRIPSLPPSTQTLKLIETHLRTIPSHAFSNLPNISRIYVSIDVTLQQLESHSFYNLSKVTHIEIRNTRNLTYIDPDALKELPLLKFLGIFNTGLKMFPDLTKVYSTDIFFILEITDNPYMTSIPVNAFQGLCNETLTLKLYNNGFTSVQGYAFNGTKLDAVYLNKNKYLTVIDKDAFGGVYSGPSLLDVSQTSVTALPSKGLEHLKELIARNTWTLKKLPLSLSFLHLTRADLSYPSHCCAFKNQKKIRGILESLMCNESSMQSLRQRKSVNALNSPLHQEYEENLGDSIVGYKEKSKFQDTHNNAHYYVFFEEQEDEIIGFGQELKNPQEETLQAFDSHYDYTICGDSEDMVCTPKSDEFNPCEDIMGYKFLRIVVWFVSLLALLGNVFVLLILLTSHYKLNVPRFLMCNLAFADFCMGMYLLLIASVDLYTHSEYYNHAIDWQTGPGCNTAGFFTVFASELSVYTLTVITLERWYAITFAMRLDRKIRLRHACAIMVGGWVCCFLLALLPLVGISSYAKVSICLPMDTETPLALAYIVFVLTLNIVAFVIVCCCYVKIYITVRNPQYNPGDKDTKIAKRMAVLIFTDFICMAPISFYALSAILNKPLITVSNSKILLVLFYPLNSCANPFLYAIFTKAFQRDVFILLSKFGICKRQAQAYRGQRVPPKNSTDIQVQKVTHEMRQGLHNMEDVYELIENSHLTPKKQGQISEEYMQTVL
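cAMP rise detected as CNG-channel membrane depolarization by fluorescent dye (emission 590 nm), 30 min after compound, following 60 min dye loading containing 100 uM RO 20-1724 at room temperature. Cells: TSHR/CNG HEK 293, with parental CNG HEK 293 as control.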
AID923 = qHTS Assay for Allosteric/Competitive Inhibitors of Caspase-1: Spectroscopic Profiling in AFC Spectral Region | compound fluorescence, AFC spectral region (405/520 nm); almost no hit is shown here | Potency, µM (highest dose often 57.5 µM), without a hit: at the highest dose fluorescence increase, usual class: activators | 75,000 compounds, 1.1% hits | AID 923, 2007; active = well fitted activation curve with a large enough effect; inconclusive = small, poorly fitted or top-dose-only effect;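 also: potency is read from the fitted curve at half-maximal effect; 0% is about no effect; scaled to a free AFC standard on each plate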
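Titrations up to 57 uM read every 20 sec for 3 min (405/520 nm) with 50 nM caspase 1 and 5 uM Ac-WEHD-AFC, pH 7.5 HEPES buffer. Fluorescence-vs-time intercept gave baseline, scaled against on-plate AFC standard.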
Resorufin autofl = compound fluoresces in the resorufin spectral region | Compound fluorescence, resorufin region 547/598 nm, buffer; active compounds read high | 59,000 compounds, 0.04% hits | AID 588 | max dye-equivalent concentration, M; active = above 10 nM dye equivalent; inconclusive = 1 to 10 nM; inactive = 1 nM or less; a few of its hits are not listed in these tables; also: highest value over a series up to 38 µM
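Intrinsic fluorescence profiled in the resorufin window (ex 547 nm, em 598 nm) after 15 min at room temperature in pH 8.0 Tris buffer (100 mM); responses normalized against a six-point resorufin standard series as dye-equivalent concentration.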
A647 fluor = compound autofluorescence in A647 spectral region; 59,000 tested, under 10 active; Compound fluorescence, A647 channel (570/671 nm), Tris buffer; max dye-equivalent concentration, M; AID 592; active means above 1 µM dye equivalent; inconclusive means 0.1 to 1 µM; inactive means 0.1 µM or less;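 also: values scaled relative to a standard on each plate; highest value over a series up to 38 µM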
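Compound fluorescence was measured in 100 mM Tris buffer, pH 8.0, after 15 min at room temperature, using 570 nm excitation and 671 nm emission filters. Signal was normalized to a per-plate Alexa 647 standard curve and expressed as dye-equivalent concentration at each compound concentration.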
A488 autofl = compound fluoresces in the A488 spectral region; 59,000 compounds, 0.1% hits; compound autofluorescence, A488 spectral region, dye equivalency; active compounds read high; max dye equivalency, M; active = above 10 nM dye equivalent; inconclusive = 1 to 10 nM; inactive = 1 nM or less; about half of its hits are not listed in these tables;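 also: highest value over a series up to 38 µM; compound alone in buffer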
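Autofluorescence read at ex 480/em 540 nm after 15 min RT in 100 mM Tris pH 8.0; compound signal normalized to A488 standard series on each plate, reported as dye-equivalent concentration at each test concentration.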
* hit, by the source's call; i = inactive; ? = inconclusive; . = not tested or not shown; & = joins results of further samples; [ ] = dose if it differs, or a comment. A portion of the library; count on the stated rates, not on these rows.

SMILES | TSHR agonist | AID923 | Resorufin autofl | A647 fluor | A488 autofl
COc1cc(NC(=O)C(C)Oc2ccccc2)c(C(=O)O)cc1OC (stereo not given) | . | 0.9% | i | 1e-09 | i
Clc1ccccc1CSc1nnc(-c2ccco2)c(-c2ccco2)n1 | . | . | i | 1e-09 | i
CCSC1=C(C#N)C(c2cccc(OC)c2)CC(=O)N1 (stereo not given) | -2% | 0.0% | i | 1e-09 | i
CC1Cc2ccccc2N1S(=O)(=O)c1cccc(C(=O)NC2CC2)c1 (stereo not given) | 7% | 0.5% | i | 3e-08 | i
C#CCNc1nc(CC)nc2c1nnn2Cc1ccccc1F | -1% | 4.1% | i | 1e-09 | i
CN(C)C(=O)c1cc(S(=O)(=O)N(C)C)c(Cl)cc1N1CCCC1 | 26% | -0.5% | i | 2e-08 | i
Cc1noc(/C=C/N(C)C)c1S(=O)(=O)N1CCCC(C(=O)N2CCCCC2)C1 (stereo not given) | 27% | -1.9% | . | . | .
O=C(CCn1nnc2ccccc21)Nc1nnc(COc2ccc(F)cc2)s1 | -4% | -0.8% | i | 1e-09 | i
COc1ccc(-n2nnnc2SCC(=O)Nc2ccc3c(c2)OCCO3)cc1OC | 5% | -0.6% | i | 2.8e-09 | i
COc1ccc(N(C(=O)c2ccco2)C(C(=O)NC2CCCC2)c2ccc(N(C)C)cc2)cc1 (stereo not given) | . | -0.1% | i | 1.9e-08 | i
N#CC1=C(N)Oc2n[nH]c(-c3ccccc3)c2C1c1cccc(OC(=O)N2CCOCC2)c1 (stereo not given) | 0% | -2.5% | . | . | .
CS(=O)(=O)NCC(c1cccnc1)N1CCN(c2ccc(F)cc2)CC1 (stereo not given) | 0% | -1.1% | i | 6.1e-09 | i
CCC(=O)Nc1c(C)ccc2nsnc12 | 3%[11.4 µM] | 1.5% | . | . | .
COCC(C)n1c(SCc2ccc(C(=O)OC)o2)nc2ccccc2c1=O (stereo not given) | ? | -1.4% | i | 1.6e-09 | i
CCC(=O)c1cc(F)c(N2CCN(S(=O)(=O)c3ccccc3)CC2)cc1C | 17%[11.4 µM] | -0.7% | . | . | .
C#CC(CO)N(CCN(Cc1ccccc1)C(C#C)CO)Cc1ccccc1 (stereo not given) | ? | 2.7% | . | . | .
CSCCC(NC(N)=O)C(=O)NCC1CCCCC1 (stereo not given) | ? | 2.0% | i | 3.1e-09 | i
N#CCCS(=O)(=O)c1nnnn1-c1ccccc1 | 13% | -1.1% | i | 4.3e-09 | i
Cc1ccc(Nc2nc(N)nc(CSc3nccn3C)n2)c(C)c1 | 14% | -0.2% | i | 1e-09 | i
CCOc1ccc(NC(=O)C2CC(=O)N(CC)C(=Nc3ccc4c(c3)OCO4)S2)cc1 (stereo not given) | . | -0.1% | i | 1e-09 | i
CCOC(=O)c1ccccc1NC(=O)COC | 9% | 1.3% | i | 1.6e-09 | i
Cc1nc(Nc2ncc3c(n2)CC(C)(C)CC3=O)nc2ccccc12 | . | . | i | 2.5e-09 | i
O=C(Nc1cccc2c1CCCC2)C1CCCN(S(=O)(=O)c2cccc3nonc23)C1 (stereo not given) | -1% | -2.1% | i | 4.4e-08 | i
COC(=O)N1CCN(c2ccc(C(C)=O)cc2)CC1 | -2% | 0.5% | i | 1e-09 | i
O=c1cnc2cnc(Oc3cccc(Cl)c3)nc2n1Cc1ccc(F)cc1 | ? | 2.9% | i | 2.4e-09 | i
COc1cc2c(cc1OC)CN(C(=O)CC1CC3CCC1C3)CC2 (stereo not given) | 6% | -0.3% | i | 3e-09 | i
Cc1cc(C)cc(N(C(=O)CNC(=O)c2ccco2)C(C(=O)NC2CCCC2)c2cccnc2)c1 (stereo not given) | 3% | 0.9% | i | 3.5e-08 | i
CCOC(=O)/C(C(N)=NC(C)C)=C(\O)c1ccccc1 | 4% | -0.7% | i | 4.5e-08 | i
O=C(c1cnccn1)N1CCC2(CC1)CN(c1ncccn1)C2 | 2% | -0.1% | i | 2.2e-08 | i
O=C1Nc2ccccc2C12OCCCO2 | 2% | 1.1% | i | 4.8e-08 | i
COc1ccc(CCNC(=O)c2nnc(Cc3c(F)cccc3Cl)o2)cc1OC | 2% | 5.2% | i | 3e-09 | i
CCCn1c(-c2ccc(F)cc2)nc2c(NCCCCN(C)C)nc(C)nc21 | ? | 0.9% | . | . | .
C=CCN=c1sc(C(=O)OC)cc(=O)n1CC=C | -4% | -0.3% | i | 1.2e-08 | i
Cc1[nH]c(=O)[nH]c(=O)c1S(=O)(=O)N1CCC(C(=O)N2CCN(Cc3ccccc3)CC2)CC1 | 9% | 1.1% | i | 2.7e-08 | i
CCN(CC)C(=O)c1csc(Nc2ccc(C)cc2)n1 | -3% | 0.5% | i | 3.5e-08 | i
O=C(Nc1ccccc1N1CCN(C(=O)c2ccccc2)CC1)c1cc2ccccc2o1 | ? | 1.1% | i | 1e-09 | i

Brought forward from above: two entries, followed by the next part.
SMILES | TSHR agonist | AID923 | Resorufin autofl | A647 fluor | A488 autofl
CCN(CC)C(=O)c1csc(Nc2ccc(C)cc2)n1 | -3% | 0.5% | i | 3.5e-08 | i
O=C(Nc1ccccc1N1CCN(C(=O)c2ccccc2)CC1)c1cc2ccccc2o1 | ? | 1.1% | i | 1e-09 | i
O=C(Cn1c(=O)oc2cc(S(=O)(=O)N3CCOCC3)ccc21)N1CCc2ccccc2C1 | -14% | 0.9% | . | . | .
Cc1cc2c(c(=O)o1)C(C(C)C)C(C#N)=C(N)O2 (stereo not given) | 7% | 2.1% | i | 1e-09 | i
Cc1nnc(NC(=O)CCC(=O)NCc2ccco2)s1 | 5% | 2.1% | i | 1e-09 | i
CCC1CCCCN1CCNC(=O)C1CCN(S(=O)(=O)c2c(C)noc2C)CC1 (stereo not given) | 1% | -0.8% | i | 6.8e-09 | i
CCOC(=O)N1CCN(c2c(NCCc3ccc(OC)c(OC)c3)c(=O)c2=O)CC1 | -4% | 0.9% | . | . | .
CN1CCN(C2=C(Cl)C(=O)N(c3ccc(Cl)cc3)C2=O)CC1 | -4% | -1.3% | i | 1.3e-08 | i
Cc1nc2ccc3nc(NC(=O)c4ccco4)sc3c2s1 | -3%[11.4 µM] | 0.2% | i | 3.1e-08 | i
O=S(=O)(c1ccc(Oc2ccc3oc4ccccc4c3c2)nc1)N1CCCC1 | 16% | -1.3% | i | 1e-09 | i
Cc1cc2nc(N)sc2cc1C | ? | -2.5% | . | . | .
Cc1cccc(C)c1NC(=O)N1CCC(c2nc3ccccc3o2)CC1 | 2% | -1.3% | i | 5e-09 | i
CCOc1ccc(C2C(C#N)=C(N)SC(N)=C2C#N)cc1OC | . | . | i | 3.8e-08 | i
COCCCN1C(=O)C(=O)/C(=C(/O)c2ccc(OC(C)C)cc2)C1c1ccncc1 (stereo not given) | 2% | 4.2% | i | 2.1e-08 | i

Copied from the listing for reference:
SMILES | TSHR agonist | AID923 | Resorufin autofl | A647 fluor | A488 autofl
O=C(Cn1c(=O)oc2cc(S(=O)(=O)N3CCOCC3)ccc21)N1CCc2ccccc2C1 | -14% | 0.9% | . | . | .
Cc1cc2c(c(=O)o1)C(C(C)C)C(C#N)=C(N)O2 (stereo not given) | 7% | 2.1% | i | 1e-09 | i

(continued)
SMILES | TSHR agonist | AID923 | Resorufin autofl | A647 fluor | A488 autofl
O=C(O)c1ccc(O)cc1O | ? | 0.5%&5.2% | . | . | .
NC(=O)CSc1oc(-c2ccc(F)cc2)nc1S(=O)(=O)c1ccccc1 | 4%[11.4 µM] | -0.3% | i | 2e-08 | i
CCOC(=O)N1CCN(S(=O)(=O)c2cc(C)c(C)cc2C)CC1 | 10% | -1.0% | i | 3.5e-09 | i
O=C(Nc1ccon1)c1cccc(S(=O)(=O)N2CCCC2)c1 | -1% | -1.2% | i | 2.6e-09 | i
COCCn1c(SCC(=O)Nc2ccccc2)nc2c1c(=O)[nH]c(=O)n2C | -1% | 0.4% | . | . | .
O=C(O)CC(NC(=O)c1ccccc1NC(=O)c1ccccc1)C(=O)O (stereo not given) | 5% | 1.1% | . | . | .
O=C(c1cccs1)N1CCCC(c2ccccc2)C1 (stereo not given) | 8% | -0.9% | i | 3.1e-08 | i
CCC(C(=O)Nc1nccs1)(C(F)(F)F)C(F)(F)F | . | . | i | 1.5e-09 | i
Cc1nc(C)n(CC(O)COc2ccc3cc(Br)ccc3c2)n1 (stereo not given) | -17% | 0.9% | i | 2.5e-09 | i
c1csc(C(c2nnnn2C2CCCC2)N2CCOCC2)c1 (stereo not given) | -2% | 1.0% | i | 3.6e-09 | i
COc1ccc(CCNc2ncnc3[nH]ncc23)cc1OC | ? | -1.7% | i | 9.2e-09 | i
COc1ccc(-n2c(SCC#N)nnc2-c2cccnc2)cc1 | 1% | -0.5% | i | 2.2e-08 | i
CCOC(=O)C(CCC#N)(CCC#N)C(=O)OCC | 4% | -0.1% | . | . | .
Cc1ccc(S(=O)(=O)NC(=O)N2CCC(C)CC2)cc1 | 0% | -1.9% | i | 2.4e-08 | i
Cc1cccc(Nc2ccccc2)c1 | -3% | -0.8% | i | 3.1e-08 | i
CCn1c(C(Cc2ccccc2)NC(=O)COC)nc2ccccc21 (stereo not given) | 14% | -1.3% | . | . | .
Cc1cccc(NC(=O)CSc2nnc(CSc3nc(C)cc(C)n3)n2Cc2ccco2)c1 | ? | 1.6% | i | 1e-09 | i
Cn1c(CN2CCCCC2)nc2cc(NS(=O)(=O)c3ccc(Cl)cc3)ccc21 | 10% | 0.5% | i | 1e-09 | i
Cc1ccc(-c2csc(=S)n2CC(=O)OCC(=O)NCc2ccco2)cc1 | ? | 1.5% | i | 1.4e-09 | i
CCN(CC)CCCN1C(=O)C(=O)/C(=C(/O)c2ccc(OC)cc2)C1c1ccco1 (stereo not given) | . | . | i | 1e-09 | i
O=C(NCc1cccs1)c1ccc(N2CCCCC2)nc1 | 1% | -3.6% | i | 1e-09 | i
O=C(CSc1ccc(Cl)cc1)Nn1cnnc1 | 8% | -0.5% | i | 1e-09 | i
N#Cc1ccc(CN2CCCC3(CCN(C(=O)c4csnn4)CC3)C2)cc1 | 13% | 1.6% | i | 1e-09 | i
O=C(NCC(=O)N(CCN1CCOCC1)C(C(=O)NC1CCCC1)c1cccs1)c1ccco1 (stereo not given) | -3% | -2.7% | i | 1e-08 | i
Cc1noc(C)c1S(=O)(=O)N1CCCC(C(=O)NCCc2ccccc2)C1 (stereo not given) | -2% | 1.4% | i | 2e-09 | i
COc1ccc(OC)c(C2NC(=O)NC(C)=C2C(=O)Nc2ccc(C)cc2)c1 (stereo not given) | 9% | -0.7% | . | . | .
COc1cc(C(=O)n2nc(C)cc2C)cc(OC)c1OC | 19%[11.4 µM] | 0.8% | . | . | .
Cc1cc(C(F)F)n2ncc(C(=O)NCc3ccccc3)c2n1 | ? | 1.4% | i | 8.1e-09 | i
Cn1c(SCC(=O)NC2CC2)nnc1-c1ccco1 | 1% | 0.2% | i | 7.2e-09 | i
Cn1c(C(=O)NC2CCCCC2)cc2sccc21 | ? | -2.3% | i | 4.3e-08 | i
Cc1cccc(NC(=O)c2ccc3ccccc3n2)n1 | 18% | 1.9% | . | . | .
O=C(CN(C(=O)Cn1nnc(-c2cccs2)n1)c1ccc2c(c1)OCCO2)NC1CCCCC1 | 9% | 1.7% | i | 1e-09 | i
Cc1csc(SCC(=O)c2cc(C)n(Cc3cccs3)c2C)n1 | ? | -1.1% | i | 1e-09 | i

Whole records from above.
Cc1cccc(NC(=O)c2ccc3ccccc3n2)n1 in the list: TSHR agonist = 18%; AID923 = 1.9%; Resorufin autofl = .; A647 fluor = .; A488 autofl = .
O=C(CN(C(=O)Cn1nnc(-c2cccs2)n1)c1ccc2c(c1)OCCO2)NC1CCCCC1 in the list: TSHR agonist = 9%; AID923 = 1.7%; Resorufin autofl = i; A647 fluor = 1e-09; A488 autofl = i
